Bioassay records as filed in PubChem BioAssay.
HSD17B inhib = blocks hydroxysteroid 17-beta dehydrogenase activity; Potency, µM (series often up to 57.1 µM), for inactives: at the top dose activity change, negative = inhibition, actives largely listed as inhibitors; recombinant HSD17B10, NADH fluorescence kinetic; many of its hits are not listed in these tables; Q99714; hit rate 7.6% among 75,000; active = well fitted inhibition curve with a large enough effect; inconclusive = small, poorly fitted or top-dose-only effect; inactive = no such curve, though single readings can be large or run the other way;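 also: the protocol describes HADH2 (HSD17B10) and not the HSD17B4 of the title; nearly all actives have a fitted effect of over 70% in size; most hits overshoot -100% by far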
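Enzyme plus compound, 15 min room temperature; substrate mix added (NAD+ 1 mM, beta-hydroxybutyryl-CoA 90 uM final); plates read kinetically for NADH fluorescence. HADH2 was His-tagged, E. coli-derived, 20 nM.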
* = called active by the depositor; ? = inconclusive; & = joins results of further samples; [ ] = another dose, or the depositor's remark. % is scaled to controls: 0 for no effect and ±100 for the full control effect; potency is read from the fitted curve at half-maximal effect. These rows are one share of the data (hit frequency here may not be typical).

SMILES	HSD17B inhib
COC(=O)c1ccc(Oc2nc(C)cc(Oc3ccccc3)n2)cc1	-12%
CCC(C)N(CCNC(=O)CC1Oc2ccc(C)cc2NC1=O)C1CCCCC1 (centres undefined)	2%
CC(=O)Nc1cccc(-c2nc3ccccc3c(=O)o2)c1	-17%
O=C(CSc1nnc2scc(-c3ccc(F)cc3)n12)NCc1ccco1	-2%
CCOC(=O)c1[nH]c(C)c(C(=O)NCc2ccc(C)cc2)c1C	3%
COc1ccc(OC)c(NC(=O)Cc2nn(C)c(=O)c3ccccc23)c1	15%
CC(C)(C=O)Cc1cc(C(C)(C)C)c(O)c(C(C)(C)C)c1	-15%
CCn1c(C)nc2cc(C(=O)n3cc(C(=O)c4cc(F)ccc4O)cn3)ccc21	3%
O=C(CSC1=NCCS1)N1CCOCC1	-1%
COc1ccc(N2C(=O)C3CCCN3C2c2cccc(OC)c2)cc1 (centres undefined)	3%
COc1ccc(-n2nnc3c(=O)n(Cc4cccc(C)c4)cnc32)cc1	-6%
CCOC(=O)C1CCN(C(=O)Nc2ccc(Cl)cc2Cl)CC1	0%
CC12CN3CC(C)(CN(C1)C3c1ccc3ccccc3c1O)C2=O (centres undefined)	-21%
Cc1ccc(-c2nnn(CC(=O)N(Cc3ccccc3)C(C(=O)NC3CCCC3)c3ccncc3)n2)o1 (centres undefined)	-10%
Cc1ccc(Cn2ccc(NC(=O)c3cc(-c4ccc(F)cc4)on3)n2)cc1	-4%
CCNc1nc(Oc2ccc(=O)n(-c3ccccc3)n2)nc(N2CCOCC2)n1	-2%
COc1ccc(OC)c(C2=C[N+](=O)C(C)(C)C(C)(C)N2[O-])c1	-11%
Cc1cccc(N(C2C=CS(=O)(=O)C2)S(=O)(=O)c2ccccc2)c1 (centres undefined)	5%
CCc1ccc(O)c(N=Cc2ccccc2O)c1	?
Cc1nc(N2CCOCC2)c2oc3ccccc3c2n1	-1%
CN1CCN(C(=O)C2C3C=CC(C3)C2C(=O)O)CC1 (centres undefined)	11%
COCC(=O)Nc1nnc(C2CCCCC2)s1	5%
Cc1ccc2nc(NC(=O)CN3CCOCC3)sc2c1	-4%
Cc1c(NC(=O)N2CCCCCC2)c(=O)n(-c2ccccc2)n1C	9%
Cc1cc(C)c(NC(=O)c2cc3c(nc4sccn43)s2)c(C)c1	-18%
Cc1ccc(SCc2cc(=O)[nH]c(N3CCN(Cc4ccc5c(c4)OCO5)CC3)n2)cc1	9%
CCn1c(SCC(=O)c2ccccc2)nnc1-c1cc2cc(Br)ccc2o1	-11%
COc1ccc(C(=O)Nc2ccccc2)cc1[N+](=O)[O-]	2%
CC(=O)NC(Cc1c[nH]c2ccccc12)C(=O)OCC(=O)Nc1ccc2c(c1)OCO2 (centres undefined)	2%
CCOc1ccc(NS(=O)(=O)c2ccc(SC)cc2)cc1	-4%
COC(=O)c1c(C)cc(O)cc1O	-3%
COc1ccc(Nc2nc(C)cc(C)c2C#N)cc1	?
CCCC(=O)OCCNC(=O)c1cc2ccccc2oc1=O	25µM*
CC(=O)NCCNc1nc(-c2cccc(NS(C)(=O)=O)c2)nc2ccccc12	3%
Cn1c(C(=O)N2CCCC(C(=O)NCCc3ccccc3)C2)cc2sccc21 (centres undefined)	4%
COc1ccccc1CNc1cc(-c2ccoc2)ncn1	-11%

Next section; the last six above are carried over.
SMILES	HSD17B inhib
COC(=O)c1c(C)cc(O)cc1O	-3%
COc1ccc(Nc2nc(C)cc(C)c2C#N)cc1	?
CCCC(=O)OCCNC(=O)c1cc2ccccc2oc1=O	25µM*
CC(=O)NCCNc1nc(-c2cccc(NS(C)(=O)=O)c2)nc2ccccc12	3%
Cn1c(C(=O)N2CCCC(C(=O)NCCc3ccccc3)C2)cc2sccc21 (centres undefined)	4%
COc1ccccc1CNc1cc(-c2ccoc2)ncn1	-11%
CC(=O)N1c2c(cc(Br)cc2S(=O)(=O)NCc2cccnc2)CC1C (centres undefined)	5%
Brc1cnc(N2CCOCC2)nc1N1CCCCC1	-2%
CCn1c(=O)cc(OCC(=O)Nc2cccnc2)c2ccccc21	1%
CCC(c1nnnn1CCc1ccccc1)N(Cc1ccco1)Cc1cc2cc(C)cc(C)c2[nH]c1=O (centres undefined)	?
COc1ccc(-c2nnc(SCC(=O)N3CCCC(C)C3)o2)c(OC)c1 (centres undefined)	7%
O=C(O)c1cccnc1SC1CC(=O)N(c2cccc(C(F)(F)F)c2)C1=O (centres undefined)	-8%
CCOc1ccc(-n2c(SCC(=O)Nc3cc(C)on3)nc3c([nH]c4ccccc43)c2=O)cc1	-5%
Cn1c(Cn2c(=O)sc3ccccc32)nnc1SCC(=O)Nc1ccccc1	4%
O=C(COc1ccc(C(=S)N2CCOCC2)cc1)N1CCCC1	3%
COc1ccccc1N1CCN(c2nc3ccccc3n3nnnc23)CC1	-5%
COc1ccc(N2CC(C)Cn3c2nc2c3c(=O)[nH]c(=O)n2C)cc1 (centres undefined)	9%
Cc1ccc(C(CC(=O)O)Nc2nc(N3CCCCC3)nc(N3CCCCC3)n2)cc1 (centres undefined)	-2%

The closing 3 records of the part above lead into the next.
SMILES	HSD17B inhib
COc1ccccc1N1CCN(c2nc3ccccc3n3nnnc23)CC1	-5%
COc1ccc(N2CC(C)Cn3c2nc2c3c(=O)[nH]c(=O)n2C)cc1 (centres undefined)	9%
Cc1ccc(C(CC(=O)O)Nc2nc(N3CCCCC3)nc(N3CCCCC3)n2)cc1 (centres undefined)	-2%
Cc1[nH]n(-c2ccc(S(=O)(=O)O)cc2)c(=O)c1N=Nc1ccccc1	1%[11.4 µM]
O=C(c1cc(-c2cccc(O)c2)on1)N1CCOCC1	4%
CCSc1ncc(Cl)c(C(=O)N(Cc2ccc(N(C)C)cc2)C2CCS(=O)(=O)C2)n1 (centres undefined)	9%
Cc1noc(C)c1S(=O)(=O)Nc1c(C)n(C)n(-c2ccccc2)c1=O	3%
COc1ccc(-c2noc(-c3ccc(Br)o3)n2)cc1OC	-6%
CC(c1ccccc1)N1CNc2c(c(=O)n(C)c(=O)n2C)C1 (centres undefined)	0%
C=CCn1c(=O)c2ccccc2n2c(SCc3cc(=O)n4ccsc4n3)nnc12	-3%
COc1ccc(C(=O)N(CN2CCCC2=O)c2nccs2)cc1OC	-21%
OC(COc1cccc2ccccc12)CN1CCN(c2ccccn2)CC1 (centres undefined)	?
O=C1c2ccccc2C(=O)N1CCc1nn[nH]n1	-13%
CCOC(=O)C1=C(C)NC(=O)NC1C (centres undefined)	-4%&5%
O=C(Nc1cccc(-c2nc3ccccc3[nH]2)c1)c1cccc(NC(=O)c2ccco2)c1	2%
O=C(NCc1cccnc1)NC1(C(F)(F)F)Oc2ccccc2O1	?
O=C(c1cnccn1)N1CCC[C@@]2(CCN(c3ccccc3)C2)C1	0%
CC(=O)OC1CC(C)N(C(=O)c2ccccc2)c2ccc(C)cc21 (centres undefined)	3%
C=CCSc1nc2nc(C)cc(C)n2n1	-21%
O=C(CN1CCN(c2cccc(Cl)c2)CC1)N1CCCC1	3%
CCOC(=O)c1cnc(Nc2ccc(OCC)cc2)nc1C	-3%
CC1(C)CC(=O)C2=C(C1)NC(Nc1nc3ccccc3o1)=NC21CCCC1	-5%
CCn1c(SCC(=O)Nc2ccccc2OC)nnc1-c1cnccn1	3%
CC(=O)C1=C(O)C(=O)N(Cc2ccccc2)C1c1ccco1 (centres undefined)	-10%
c1ccc(N2CCOCC2)c(Nc2nc3ccccc3n3cnnc23)c1	8%
COC(=O)c1ccccc1NC(=O)CSc1nc(N)cc(N)n1	5%
COc1ccccc1-c1cncnc1NCc1cnc(C)cn1	2%

Pulled by structure from above, 3 records:
SMILES	HSD17B inhib
CCn1c(SCC(=O)Nc2ccccc2OC)nnc1-c1cnccn1	3%
O=C(NCc1cccnc1)NC1(C(F)(F)F)Oc2ccccc2O1	?
O=C(c1cnccn1)N1CCC[C@@]2(CCN(c3ccccc3)C2)C1	0%

Next compounds:
SMILES	HSD17B inhib
CCOc1ccccc1OCC(=O)Nc1ccc(S(=O)(=O)Nc2ncccn2)cc1	-6%
Cc1cc(C)cc(-n2nnc(C(=O)NCc3ccc4c(c3)OCO4)c2N)c1	4%
Cc1cccc(NC(=O)Nc2cccc(F)c2)n1	-1%
COCCn1cc(C(=O)N2CCN(C)CC2)c2c3ccccc3n(C)c2c1=O	32µM*
O=S(=O)(c1ccc(F)cc1)N1CCN(CC(O)COCc2cccs2)CC1 (centres undefined)	3%
CC1(C)CC(=O)C2=C(C1)OC(N)=C(C#N)C21C(=O)N2CCCc3cccc1c32 (centres undefined)	-4%
Cc1ccc(-c2nn3c(=O)c(C)nnc3s2)cc1	-2%
Cn1c(SCC(=O)Nc2cccc(F)c2)nnc1-c1cccnc1	-6%
COCCNC(=O)CCn1c(=O)oc2ccccc21	-2%
O=C(c1ccc2c(=O)n(-c3ccccc3)c(=O)[nH]c2c1)N1CCCCC1	32µM*
COc1ccc(S(=O)(=O)NCC(=O)N(CC(=O)NCC2CCCO2)c2cc(C)ccc2C)cc1 (centres undefined)	-4%
CC(=O)Nc1ccc(NC(=O)c2ccco2)cc1	-1%
COc1ccc(N2CC(C)Cn3c2nc2c3c(=O)n(Cc3ccc(F)cc3)c(=O)n2C)c(OC)c1 (centres undefined)	-6%
COc1cccc(CNCCSc2nnnn2C)c1	9%
CCOc1ccc2nc(NC(=O)CSc3nc4cccnc4n3C)sc2c1	1%
CCCCN(c1ccccc1)c1ncnc2nc[nH]c12	12%
CC1(C)CC(=O)c2cnc(NC(=O)C3CCCC3)nc2C1	3%
Cc1csc(CCc2nc(C)cs2)n1	13%
COc1ccc(C2CC(=O)c3c(O)cc(O[C@H]4OC(COC5OC(C)C(O)C(O)[C@@H]5O)C(O)C(O)C4O)cc3O2)cc1O (some centres undefined)	1%
Cc1ccc(S(=O)(=O)NCCCNC(=O)N2CCOCC2)cc1	8%
CCOc1ncccc1C(=O)OCC(=O)c1cc(C)n(Cc2ccco2)c1C	-10%
Cc1ccnc(NC(=O)C2CCC(CNc3c(N4CCCC4)c(=O)c3=O)CC2)c1 (centres undefined)	-19%
CCOc1cccc(C(=O)Nc2nnc(-c3ccco3)s2)c1	-20%
COC(=O)[C@@]1(C)C=C[C@@H](Cc2ccccc2)N1C(C)=O	4%

2 entries from above, with bars between the fields.
compound | HSD17B inhib
CC1(C)CC(=O)c2cnc(NC(=O)C3CCCC3)nc2C1 | 3%
CCOc1ccc2nc(NC(=O)CSc3nc4cccnc4n3C)sc2c1 | 1%

Carrying on.
SMILES	HSD17B inhib
CC1(C)Cc2cccc(OCC(=O)O)c2O1	3%
CC(=O)NC(N1CCCCC1)C(F)(F)C(F)(F)C(F)(F)C(F)F (centres undefined)	4%
COc1cccc(-c2csc3nnc(SCC(=O)NCc4cccs4)n23)c1	8%
O=C(CCSc1nnc(-c2ccncc2)o1)Nc1ccc(F)cc1	-1%
CCOC(=O)NC(=O)CSc1nc(C)cc(C(F)(F)F)c1C#N	3%
C/C(N)=C(/C#N)C(=O)COC(=O)C(NS(=O)(=O)c1ccc(Cl)cc1)C(C)O (centres undefined)	6%
Cc1ccc(N2CC(C(=O)N3CCCc4ccccc43)CC2=O)cc1 (centres undefined)	-8%
NS(=O)(=O)c1ccc(N=Nc2cc3ccccc3c(C(=O)O)c2O)cc1	-25%[11.4 µM]
CC1(C)CC(=O)C(C=NCc2ccc3c(c2)OCO3)=C(O)C1	-6%
COCCCNC(=O)c1cn(Cc2c(F)cccc2Cl)nn1	0%
CCOc1ccc(S(=O)(=O)n2ccc(C)n2)c2ccccc12	?
O=C(O)c1nnsc1-c1ccc(-c2snnc2C(=O)O)cc1	-15%[11.4 µM]
CCn1c(SCC(=O)Nc2nnc(C)s2)nc2c(c1=O)SC(C)C2 (centres undefined)	0%
CC(=O)Nc1ccc(S(=O)(=O)N2CCN(c3cccc(C)c3C)CC2)cc1	3%
Cc1cc(C(=O)OCC(=O)N2CCN(c3ccccc3)CC2)c2ccccc2n1	-6%
Cc1ccc(C2/C(=C(/O)c3ccc(Br)cc3)C(=O)C(=O)N2Cc2ccco2)o1 (centres undefined)	-28%
Cc1cccc2sc(NC(=O)CNS(=O)(=O)c3ccc(Br)s3)nc12	4%
CCOC(=O)C1C(=O)NC(N2CCc3ccccc32)=NC1c1ccccc1 (centres undefined)	3%
O=C(O)CCNc1ccccc1C(=O)O	3.2µM*
CCOc1ccc(N(CC(=O)NCc2cccs2)S(=O)(=O)c2c(C)noc2C)cc1	3%
O=C(CN1CCN(Cc2ccccc2Cl)C1=O)NC1CCCCCCC1	10%
NC(=O)C1CCN(C(=O)c2cc3n(n2)C(C(F)(F)F)CC(c2ccco2)N3)CC1 (centres undefined)	6%
O=C(NCC(=O)N(c1ccc(F)cc1)C(C(=O)NCC1CCCO1)c1ccccc1)c1ccco1 (centres undefined)	-8%
COc1ccc(N2CCN(Cc3nc4c(c(=O)[nH]c(=O)n4C)n3CC(C)=O)CC2)cc1	6%
CCN(CC(=O)NCc1ccc(F)cc1)CC(O)COCc1cccc(OC)c1 (centres undefined)	4%
CC(C)C(c1nnnn1Cc1cccs1)N1CCN(c2ccccc2)CC1 (centres undefined)	6%
COc1cc(NC(=O)c2cc3ccccc3o2)c(OC)cc1Br	?
N=c1n(Cc2ccccc2)c2ccccc2n1CC(O)COc1ccccc1 (centres undefined)	?
Cn1nc(C(=O)Nc2ccc(S(=O)(=O)N3CCCCC3)cc2)ccc1=O	0%
CCCNc1nc2c(c(=O)[nH]c(=O)n2C)n1CCc1ccccc1	12%
Nn1c(SCC(=O)Nc2ccc3c(c2)OCO3)nnc1C1CC1	2%
CCOC(=O)O[C@]1(C(=O)COC(=O)CC)CC[C@@H]2[C@@H]3CCC4=CC(=O)C=C[C@@]4(C)[C@H]3[C@H](O)C[C@]21C	-6%[25.6 µM]
CCOCCCNC(=O)c1c(-c2ccccc2)noc1C	8%
CCOC(=O)CCC(=O)Nc1ccccc1C(N)=O	-2%
